Compound activity (PubChem BioAssay)
Mtb bLac sens = beta-lactam sensitization of Mtb H37Rv, H37Rv; 330,000 tested, 0.27% active; M. tuberculosis H37Rv growth with meropenem, percent inhibition; hits of this screen are not shown here; AID 434955, 2010; inhibition, % at 25 µM;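 active = about 74% or more and at least 40 points above the plate without the antibiotic, then above 30% in a dose series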;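 also: growth measured after seven days incubation then overnight dye step; 0% = bacteria only wells and 100% = bacteria with antibiotic; twin plates without the antibiotic show which effects depend on it; some results filed as inactive read as strong as hits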
RecA splice inh = Mtb RecA intein splicing inhibitors, primary screen, biochemical, fluorescence, HTS; 290,000 tested, 0.75% active; AID 2221, 2009; cell-free RecA intein splicing; inhibition, %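 (about 9 µM by stock and volumes)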; in the data active = inhibition above about 30%;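 also: 0% = vehicle wells and 100% = reference inhibitor control wells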
Target sequence (P9WHJ3 whole entry, looked up, canonical isoform): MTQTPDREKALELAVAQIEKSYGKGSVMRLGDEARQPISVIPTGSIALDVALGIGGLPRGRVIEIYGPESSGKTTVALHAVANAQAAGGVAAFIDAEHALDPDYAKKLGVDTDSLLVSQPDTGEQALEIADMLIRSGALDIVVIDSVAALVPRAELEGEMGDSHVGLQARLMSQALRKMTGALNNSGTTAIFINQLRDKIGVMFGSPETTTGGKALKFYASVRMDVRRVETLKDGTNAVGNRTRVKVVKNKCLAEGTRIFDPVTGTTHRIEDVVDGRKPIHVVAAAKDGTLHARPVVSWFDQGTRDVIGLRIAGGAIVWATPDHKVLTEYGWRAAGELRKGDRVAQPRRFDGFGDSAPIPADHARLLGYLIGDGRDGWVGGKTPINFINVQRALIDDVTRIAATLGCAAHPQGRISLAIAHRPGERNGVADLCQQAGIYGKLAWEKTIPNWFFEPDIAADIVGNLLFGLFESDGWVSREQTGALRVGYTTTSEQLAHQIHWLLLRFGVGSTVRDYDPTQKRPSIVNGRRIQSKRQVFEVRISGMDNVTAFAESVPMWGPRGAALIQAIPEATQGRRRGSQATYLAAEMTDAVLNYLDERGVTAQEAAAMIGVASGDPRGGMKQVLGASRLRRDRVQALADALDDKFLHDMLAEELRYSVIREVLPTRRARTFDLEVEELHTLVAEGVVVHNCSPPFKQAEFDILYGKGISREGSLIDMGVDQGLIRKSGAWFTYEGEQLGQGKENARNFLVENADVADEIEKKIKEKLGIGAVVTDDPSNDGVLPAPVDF
Mtb growth = M. tuberculosis H37Rv growth inhibitors, H37Rv strain (AID 1626) | M. tuberculosis H37Rv growth inhibition; higher % means a stronger effect | 220,000 tested, 0.95% active | inhibition, % at 10 µM, or IC50 in µM where a hit was titrated;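 active = confirmed in a dose series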;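 also: bacteria incubated seven days before Alamar blue readout; 0% = bacteria only wells and 100% = bacteria with antibiotic wells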
Arbovirus anti = antivirals against arbovirus infection, primary screen, cell-based, full library, 10K replicate subset; arbovirus infection cell-based antiviral screen; 200,000 tested, 0.37% active; inhibition, % at 10 µM;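 active = inhibition from about 30%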;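 also: bluetongue infection of BSR cells; cell survival read as ATP light after 72 h; 0% = infected wells without compound and 100% = uninfected wells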
YopH inh = YopH tyrosine phosphatase inhibitors, primary screen, biochemical, fluorescence Ex485/Em525; 140,000 tested, 0.16% active; YopH tyrosine phosphatase [Yersinia enterocolitica]; AID 898, 2007; inhibition, %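 (about 10 µM by stock and volumes)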;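 active = inhibition of 50% or more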;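 also: controls were vehicle for no effect and minimum signal wells for full effect; inactives centre near -20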
Arbovirus anti repeat = recorded beside Arbovirus anti, whose call it bears; inhibition, %; measured here: 10K subset replicate screen; many hits read low in the repeat;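 first of two repeat runs on a subset; 0% = infected and 100% = uninfected wells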
Active calls of the source: *; . = not tested or not shown. These rows are one share of the data, so the mix of outcomes need not match the whole.

SMILES | Mtb bLac sens | RecA splice inh | Mtb growth | Arbovirus anti | YopH inh | others
CN1CCN(C(=O)c2ccc3c(=O)n(Cc4ccc(Cl)cc4)c(=S)[nH]c3c2)CC1 | -9 | 0.4 | 2% | -7 | -10
COc1ccccc1CNC(=O)CCN1C(=O)COc2ccccc21 | -2 | -0.5 | 1% | 0 | -40
CCCCOC(=O)C1=C(C)Nc2ncnn2C1c1ccc(OCC)c(OC)c1 (centres undefined) | 9 | -1.3 | -9% | 5 | -32
O=C(CSc1ncccn1)N1CCN(C(=O)CSc2ncccn2)CC1 | 0 | -1.9 | -6% | 3 | -36
COc1ccccc1C(=O)N/C(=C\c1ccc(Br)cc1)C(=O)NCC(=O)O | -2 | -0.8 | -5% | -2 | -27
Cc1cc(-c2nnc(CCC(=O)NC(C)c3ccccc3Cl)o2)no1 (centres undefined) | -8 | 1.8 | -3% | 6 | .
CC(C)(C)c1ccc(C(=O)c2c[nH]c(C(=O)NCCCn3ccnc3)c2)cc1 | 8 | -0.7 | 0% | -11 | -7
NC(=O)c1c(NC(=O)c2ccccc2C(=O)O)sc2c1CCCC2 | 1 | -6.5 | . | . | .
CN1CCN(c2ncnc3nc[nH]c23)CC1 | -3 | 2.2 | -4% | 10 | .
CCOC(=O)c1cnc(SCC(=O)Nc2cc(C(F)(F)F)ccc2N2CCOCC2)nc1N | -8 | -2.0 | 4% | -17 | -23
O=C(COc1ccc([N+](=O)[O-])cc1)Nc1nnc(-c2cccnc2)s1 | -1 | -0.9 | -19% | . | .
COc1ccc(CN(C)C(=S)Nc2ccc(Cl)cc2)cc1 | -12 | 4.6 | 2% | 13 | .
CCOC(=O)c1c(C)nc2c(c1-c1ccccc1)C(=O)CC(C)(C)C2 | 2 | -0.4 | -1% | 3 | -14
CC(Sc1nc2ccccc2c(=O)n1CC1CCCO1)C(=O)N(C)Cc1ccccc1 (centres undefined) | -13 | 0.0 | . | . | .
CCC(C)C(NC(=O)OC(C)(C)C)C(=O)NC(C(=O)N1CCCC1C(N)=O)C(C)CC (centres undefined) | -4 | -0.9 | -14% | 7 | -25
CC(C)CN(C(=O)c1ccco1)c1nc2ccccc2s1 | -3 | 11 | 17% | 18 | .
Cc1cc(NC(=O)C2(c3ccccc3)CCCC2)no1 | -3 | -1.6 | 9% | 2 | -12
Cc1c(NC(=S)NC(=O)C2CCCCC2)c(=O)n(-c2ccccc2)n1C | 0 | -1.9 | -3% | 1 | -27
Cc1cc(C)c2sc(NC(=O)c3ccc([N+](=O)[O-])o3)nc2c1 | 99 | -14 | . | . | .
CCN(CC(=O)Nc1ccc(Br)cc1)C(=O)Cc1cccc(F)c1 | 1 | -2.3 | . | . | .
COc1ccc2oc(C(=O)OCC(=O)N3CCN(c4ccccc4)CC3)c(C)c2c1 | -4 | 1.6 | . | . | .
COC(=O)c1ccc(Cl)c(NC(=O)CN2CCN(Cc3ccccc3)CC2)c1 | 1 | 0.3 | -1% | 1 | 64*
COc1ccccc1NS(=O)(=O)c1cccc(C(=O)N/N=C/c2ccc(N3CCOCC3)cc2)c1 | -2 | -5.9 | 2% | 7 | -38
O=C(Oc1ccccc1)c1ccccc1OS(=O)(=O)c1ccccc1 | 93 | 11 | 10% | -1 | -17
CCOC(=O)c1cnc2ccc(Cl)cc2c1NCCN(C)C | 10 | 1.8 | 1% | 1 | -29
O=C(Nc1ccc(Cl)cc1)C(c1ccccc1)N(CCO)CCO (centres undefined) | 2 | 2.4 | -9% | -11 | -12
Cc1ccc(NC(=O)[C@@H](CC(C)C)NC(=O)[C@@H]2Cc3ccccc3CN2)cc1 | 6 | -0.4 | . | . | .
Cc1ccc(C(=O)COC(=O)c2cnccn2)cc1 | 3 | . | -6% | 5 | -15 | Arbovirus anti repeat=0
COc1cc(Br)cc(Br)c1OCC(=O)N/N=C/c1c(C)n(C)n(-c2ccccc2)c1=O | 2 | -0.8 | . | . | .
CC(=O)N1CCOc2ccc(S(=O)(=O)N3CCCCC3)cc21 | -5 | -3.0 | . | . | .
NC[C@@H]1O[C@H](O[C@H]2[C@@H](O)[C@H](O[C@@H]3[C@@H](O)[C@H](N)C[C@H](N)[C@H]3O[C@H]3O[C@H](CO)[C@@H](O)[C@H](O)[C@H]3N)O[C@@H]2CO)[C@H](N)[C@@H](O)[C@@H]1O | 2 | -0.9 | -4% | 2 | .
CN(c1ccc(C(=O)NC2CCCC2)cc1)S(=O)(=O)c1ccccc1 | 6 | 2.4 | . | . | .
CN1CCN(c2ccccc2NC(=O)COc2ccc(C3CCCCC3)cc2)CC1 | 98 | 1.6 | . | . | .
Cc1ccc(/C(O)=C2\C(=O)C(=O)N(C)C2c2cccc([N+](=O)[O-])c2)cc1 (centres undefined) | -4 | -1.2 | . | . | .
CC(C)(C)c1ccc(NC(=O)COC(=O)CCN2C(=O)c3cccc([N+](=O)[O-])c3C2=O)cc1 | 15 | -5.5 | 4% | 0 | -24
[O-]/[N+](=C\c1cccc(Br)c1)c1ccccc1 | 1 | -0.3 | -9% | -5 | .
CCOC(=O)c1sc(NC(=O)Cc2ccc(F)cc2)nc1C | -7 | . | -3% | -22 | .
O=C(N/N=C/c1cccs1)C(O)c1ccccc1 (centres undefined) | -1 | -1.3 | -4% | . | .
Cc1ccc(N2CN(CCc3ccccc3)CNC2=S)cc1 | -13 | -0.6 | -14% | . | .
CCCC12CN3CC(C)(CN(C1)C3c1ccco1)C2=O (centres undefined) | 2 | -0.3 | 2% | 1 | .
CCCCCC1CC(=O)N(Cc2ccccc2)C(=O)N1 (centres undefined) | -2 | 1.1 | -5% | -7 | -24
Cc1cc(OCC(=O)Nc2ccc3c(c2)OCCO3)ccc1Cl | 84 | . | 31% | 10 | -25
Cc1ccc(-n2c(SCC(=O)N3CCOCC3)nnc2-c2ccncc2)cc1 | -8 | -0.9 | -8% | 2 | 2
O=c1c(C(c2ccccc2)c2c(O)nc3n(c2=O)CCS3)c(O)nc2n1CCS2 | 4 | -1.6 | -5% | 1 | -27
C=CCn1c(O)c(C(CC)=NCCN2CCN(C(=S)NC)CC2)c(=O)[nH]c1=O | -1 | -3.9 | -2% | . | .
CC(C)n1c(NCc2cc(Cl)ccc2O)nc2ccccc21 | 5 | 5.4 | 18% | 20 | -35 | Arbovirus anti repeat=2
C/C(=N/NC(=O)CNC(=O)CCc1ccccc1)c1ccc(Cl)c(Cl)c1 | -13 | 5.0 | -14% | . | .
CC(C)(C)C(=O)NCCN1CCN(C(=O)C(C)(C)C)CC1 | -3 | 0.7 | -4% | 3 | 11
CC(C)CNS(=O)(=O)c1ccc(S(=O)(=O)N2CCC3(CC2)OCCO3)cc1 | 0 | 0.2 | -3% | -6 | -12
CNS(=O)(=O)c1ccc(Cl)nc1 | 7 | 0.4 | 5% | 3 | -17
CCCCN(Cc1ccco1)C(=O)Cn1ncc2c(=O)oc3ccc(C)cc3c21 | 2 | 1.1 | 2% | -19 | -31
COc1ccc(CNC(=O)CN2C(=O)NC(C)(c3cccc(Br)c3)C2=O)cc1 (centres undefined) | -4 | -0.1 | . | . | .
N#Cc1c(-c2ccccc2Cl)noc1/C=C/Nc1ccc(C(=O)O)cc1 | -3 | -6.2 | 1% | 23 | .
Cc1ccnc(-n2c(CCN3C(=O)c4ccccc4C3=O)nc3ccccc3c2=O)c1 | 4 | 1.0 | -17% | 7 | -4
Cc1ccc(C(=O)Nn2c(O)c(C=C3N=c4ccccc4=N3)sc2=S)cc1 | 19 | -1.2 | -7% | -5 | -31
Cc1ccccc1-n1ncc2c1CC(C)(C)CC2NC(=O)CCN1CCCCC1=O (centres undefined) | -16 | -4.7 | . | . | .
COc1ccccc1NC(=O)c1cccs1 | -13 | 1.2 | -2% | 3 | -9
CCOC(=O)Cc1csc(NC(=O)C(CC(C)C)NC(=O)C2CCCCC2)n1 (centres undefined) | -2 | 0.0 | -3% | -1 | .
COc1ccc(NS(=O)(=O)c2ccc(N3CCCC3)c(NC(=S)Nc3cccc(C)c3C)c2)cc1 | 60 | 7.2 | 33% | 8 | -26
O=C(Nc1ccc(F)cc1)N1CCN(c2ncccn2)CC1 | 0 | -1.8 | 0% | 2 | .

The final two entries of the section before lead into the next.
SMILES | Mtb bLac sens | RecA splice inh | Mtb growth | Arbovirus anti | YopH inh | others
COc1ccc(NS(=O)(=O)c2ccc(N3CCCC3)c(NC(=S)Nc3cccc(C)c3C)c2)cc1 | 60 | 7.2 | 33% | 8 | -26
O=C(Nc1ccc(F)cc1)N1CCN(c2ncccn2)CC1 | 0 | -1.8 | 0% | 2 | .
CCOC(=O)CC1CCCCN1C(=O)c1ccc2nc(CCOC)oc2c1 (centres undefined) | -1 | -1.3 | . | . | .
COc1cc(OC)c(NC(=O)CN(C)S(=O)(=O)c2ccc3[nH]c(=O)oc3c2)cc1Cl | 1 | -2.5 | . | . | .
Cn1cc(-c2cc(C(=O)O)on2)cn1 | -1 | -1.0 | -5% | . | .
Cc1onc(-c2ccccc2)c1-c1csc(N/N=C/c2ccccc2)n1 | 1 | 2.9 | -1% | . | .
O=C(Nc1nnc(SCC(=O)N2CCCCC2)s1)c1ccc(F)cc1F | 16 | -0.8 | . | . | .
CCOC(=O)N1CCC(N2CC34C=CC(O3)C(C(=O)Nc3ccc(C)cc3)C4C2=O)CC1 (centres undefined) | -4 | 0.0 | -2% | -1 | -23 | Arbovirus anti repeat=3
O=C(c1cccc([N+](=O)[O-])c1)N1CCN(S(=O)(=O)N2CCCCC2)CC1 | 2 | 1.4 | . | . | .
COc1ccc(OC)c(NC(=O)CC2Oc3ccccc3NC2=O)c1 (centres undefined) | -2 | 2.0 | . | . | .
Cc1ccccc1-n1nc(C)c2cc(C(=O)N3CCN(S(=O)(=O)c4ccc(F)cc4)CC3)sc21 | -1 | 1.4 | -4% | -2 | 0
NNC(=S)Nc1cc(S(=O)(=O)N2CCOCC2)ccc1N1CCOCC1 | -2 | 0.5 | 4% | -4 | .
CC(NC(=O)c1cc2ccccc2o1)c1cccs1 (centres undefined) | 13 | 23 | 4% | 1 | 4
O=C(Nc1ccccc1)c1ccc[nH]1 | -3 | 1.3 | -3% | 11 | -24
Cc1cc(C)c2nc(-c3cccnc3)cc(C(=O)NC(C)c3cnn(C)c3C)c2c1 (centres undefined) | -23 | -0.2 | 3% | 3 | .

Among those listed so far, 12 contain a Cl atom:
SMILES | Mtb bLac sens | RecA splice inh | Mtb growth | Arbovirus anti | YopH inh | others
CN1CCN(C(=O)c2ccc3c(=O)n(Cc4ccc(Cl)cc4)c(=S)[nH]c3c2)CC1 | -9 | 0.4 | 2% | -7 | -10
Cc1cc(-c2nnc(CCC(=O)NC(C)c3ccccc3Cl)o2)no1 (centres undefined) | -8 | 1.8 | -3% | 6 | .
COc1ccc(CN(C)C(=S)Nc2ccc(Cl)cc2)cc1 | -12 | 4.6 | 2% | 13 | .
COC(=O)c1ccc(Cl)c(NC(=O)CN2CCN(Cc3ccccc3)CC2)c1 | 1 | 0.3 | -1% | 1 | 64*
CCOC(=O)c1cnc2ccc(Cl)cc2c1NCCN(C)C | 10 | 1.8 | 1% | 1 | -29
O=C(Nc1ccc(Cl)cc1)C(c1ccccc1)N(CCO)CCO (centres undefined) | 2 | 2.4 | -9% | -11 | -12
Cc1cc(OCC(=O)Nc2ccc3c(c2)OCCO3)ccc1Cl | 84 | . | 31% | 10 | -25
CC(C)n1c(NCc2cc(Cl)ccc2O)nc2ccccc21 | 5 | 5.4 | 18% | 20 | -35 | Arbovirus anti repeat=2
C/C(=N/NC(=O)CNC(=O)CCc1ccccc1)c1ccc(Cl)c(Cl)c1 | -13 | 5.0 | -14% | . | .
CNS(=O)(=O)c1ccc(Cl)nc1 | 7 | 0.4 | 5% | 3 | -17
N#Cc1c(-c2ccccc2Cl)noc1/C=C/Nc1ccc(C(=O)O)cc1 | -3 | -6.2 | 1% | 23 | .
COc1cc(OC)c(NC(=O)CN(C)S(=O)(=O)c2ccc3[nH]c(=O)oc3c2)cc1Cl | 1 | -2.5 | . | . | .
